Screening results as filed in PubChem.
GALR2 agonist = activates the human galanin receptor 2; O43603; GALR2-expressing cells, agonist activation read-out; activation, %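 (tested at 5 µM)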; actives 0.48% (n = 140,000); AID 803;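 active = above mean plus 3 SD of all compounds, about 5% in these data, not always enough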;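 note: 0% = vehicle buffer wells and 100% = reference agonist at full effect; tested in CHO reporter cells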
HSV replic up = increases HSV replication in cells; actives 0.005% (n = 220,000); HSV replication augmentation in cells, fold increase; maximum fold increase;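 active = peak rise of 1.5-fold or more in the series; tested in PC3 cells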;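 note: first round at 10 µM; read as green reporter fluorescence; hits show the peak of a series up to 25 µM; 1 = signal of infected wells without compound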
RGS16-Gao HTS = RGS16-Galphao interaction regulator (human) | binding response (% of control), % at 10 µM | O15492+P09471 | actives 0.38% (n = 220,000) | bead-based flow cytometry RGS16-Galphao binding, fluorescence; actives lie on both sides;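 active = below 25% or above 175%, edge rows of some plates excepted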;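 note: Galphao activated by GDP with aluminum fluoride before binding; 100% = wells without compound and 0% = beads without RGS; some results beyond the cut were filed as inactive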
PKD1 kinase inh = inhibitors of human PKD1 kinase; PKD1 kinase fluorescence polarization assay; inhibition, %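 (about 10 µM by stock and volumes)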; actives 0.056% (n = 200,000); AID 797;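 active = inhibition of 50% or more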;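 note: controls were vehicle for no effect and a reference inhibitor for full effect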
Target sequence (Q15139 whole entry, looked up): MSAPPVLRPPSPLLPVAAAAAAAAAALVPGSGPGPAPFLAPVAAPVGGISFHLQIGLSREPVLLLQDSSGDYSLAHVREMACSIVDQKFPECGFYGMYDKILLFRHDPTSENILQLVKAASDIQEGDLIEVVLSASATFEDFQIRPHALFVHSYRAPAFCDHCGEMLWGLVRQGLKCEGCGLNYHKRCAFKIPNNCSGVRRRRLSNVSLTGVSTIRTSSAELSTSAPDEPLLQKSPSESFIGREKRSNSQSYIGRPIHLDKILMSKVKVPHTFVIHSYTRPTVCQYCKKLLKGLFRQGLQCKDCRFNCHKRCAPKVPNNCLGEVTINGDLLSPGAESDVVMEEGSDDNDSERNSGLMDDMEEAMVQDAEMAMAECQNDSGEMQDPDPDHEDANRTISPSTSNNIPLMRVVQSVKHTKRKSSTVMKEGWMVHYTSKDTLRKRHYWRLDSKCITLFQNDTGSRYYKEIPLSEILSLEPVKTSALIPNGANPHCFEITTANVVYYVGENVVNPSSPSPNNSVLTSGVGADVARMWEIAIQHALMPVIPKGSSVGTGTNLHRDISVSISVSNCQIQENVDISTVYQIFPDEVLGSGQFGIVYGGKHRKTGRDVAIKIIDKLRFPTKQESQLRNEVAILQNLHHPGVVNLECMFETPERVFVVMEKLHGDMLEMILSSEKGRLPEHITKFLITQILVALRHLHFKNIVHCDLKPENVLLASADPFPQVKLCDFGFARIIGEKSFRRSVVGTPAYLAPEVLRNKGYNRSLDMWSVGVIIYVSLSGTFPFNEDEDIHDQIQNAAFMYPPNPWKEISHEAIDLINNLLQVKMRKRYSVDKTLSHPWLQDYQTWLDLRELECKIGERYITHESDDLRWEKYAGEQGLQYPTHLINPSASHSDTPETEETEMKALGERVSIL
Insulin prom inh = TRM-6 insulin promoter activity inhibition; TRM-6 cells (human fetal islet line), insulin promoter-eGFP reporter, imaging; reporter expression induced with tamoxifen; inhibition, % at 2 µM; actives 0.9% (n = 130,000); AID 1273;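 active = inhibition above the mean plus 3 SD, with well images judged a real hit on visual review, cut at about 60% in these data, passing the limit was not always enough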
Insulin prom inh cell count = also measured in Insulin prom inh; calls as there; normalized cell count, %; measured here: cell count, toxicity; reference of the scale not given here;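 cells exposed to compound for 48 h; stained nuclei by imaging scaled within each plate; lower means fewer cells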
HSV replic up primary fold = recorded beside HSV replic up, whose call it bears; fold increase; compound at 10 µM; measured here: primary screen fold increase 10 uM; tested in PC3 cells;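 GFP signal in the first replicate; 1 = infected wells without compound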
Active calls of the source: *; i = inactive; nt = not tested or not shown.

Molecule	GALR2 agonist	HSV replic up	HSV replic up primary fold	RGS16-Gao HTS	PKD1 kinase inh	Insulin prom inh	Insulin prom inh cell count
CCNc1cc2oc(=O)c(CN3CCOCC3)c(C)c2cc1C	7.8	i	1.17	100.6	-3.8	-23.1	96.0
CCOc1ccc(OCC)c(NC(=O)CN2CCN(CC)CC2)c1	-2.1	i	0.92	108.7	-13.2	-15.4	74.5
CCN1CCN(C(=O)c2cn(CC)c3ccc(S(=O)(=O)N(C)C)cc3c2=O)CC1	-0.3	i	1.24	97.9	-18.0	nt	nt
CCN1/C(=C2\C(=O)N(C)C(=S)N2C)C=Cc2cc(C)ccc21	1.3	i	1.17	100.1	4.8	nt	nt
COc1ccc(-c2c(C(F)(F)F)nn(C)c2NC(=O)CSCC(=O)O)cc1	nt	i	1.03	95.4	nt	nt	nt
Cn1c(SCCOc2ccccc2F)nc2ccccc2c1=O	nt	i	0.99	119.2	-4.5	nt	nt
O=S(=O)(c1ccc(Cl)s1)N1CCC(Cc2ccccc2)CC1	-2.7	i	1.06	103.1	-2.2	-40.0	105.7
O=C(O)COc1ccccc1/C=N/NC(=O)c1cc(-c2ccc(Cl)cc2)nc2ccccc12	nt	i	0.83	98.1	nt	nt	nt
CC(OC(=O)c1ccncc1)C(=O)Nc1cccc(Cl)c1 (centres undefined)	-0.6	i	0.97	108.0	-7.0	-7.1	111.0
CCC(=O)c1ccc(OCC(O)CN2CCN(c3ccc(F)cc3)CC2)cc1 (centres undefined)	-1.7	i	0.83	104.9	-11.7	nt	nt
CC(=O)c1c(C)nc(-c2ccccc2)nc1N	nt	i	0.99	104.5	-8.9	nt	nt
CCOc1c2ccoc2nc2c(OC)c(OC)ccc12	nt	i	0.7	102.3	4.7	nt	nt
CNc1oc(Cc2ccccc2)nc1S(=O)(=O)c1ccc(Cl)cc1	-2.2	i	0.92	98.2	4.8	nt	nt
CCN1C(=O)N(CC)C(O)(c2ccccc2)C1(O)c1ccccc1 (centres undefined)	0.0	i	1.03	95.7	-7.7	nt	nt
Cc1c(C(=O)N2CCCCCC2)nnn1-c1nonc1N	-0.9	i	0.93	98.8	-12.1	-7.7	93.3
Cc1cc(Nc2nn(C)c(N)c2C#N)ccc1F	nt	i	1.02	96.8	-0.8	nt	nt
O=C(O)CCCC(=O)Nc1nncs1	nt	i	0.92	112.1	1.3	nt	nt
O=C(Cn1cncn1)NCCC(c1ccccc1)c1ccccc1	nt	i	1	93.0	0.8	nt	nt
Nc1nonc1C(=O)N/N=C/c1ccc(Br)o1	nt	i	0.96	105.6	nt	nt	nt
O=C(c1ccc2c(c1)OCO2)N1CCC2(CC1)Oc1ccc(F)cc1C(=O)C21CC(c2ccccc2)=NO1 (centres undefined)	nt	i	0.68	97.6	nt	nt	nt
COc1ccc(CCNC(=O)C2CC(c3ccccc3C(F)(F)F)=NO2)cc1 (centres undefined)	nt	i	0.89	101.7	nt	nt	nt
CCOc1ccccc1OCCn1nnc2ccccc21	-0.6	i	0.95	100.3	3.0	-14.3	89.0
CCOC(=O)C(/C(N)=N/C(=O)Nc1ccccc1)=C(\C)O	-1.8	i	0.86	100.9	-5.0	-9.1	143.2
COc1cccc(/C=C/C(=O)c2ccc[nH]2)c1	-1.1	nt	nt	93.0	3.5	6.8	153.7
C/C(CC(=O)Nc1cccc2c1CCCC2)=N\NC(=O)COc1ccccc1	-0.7	i	0.98	104.2	1.4	-27.3	50.2
CCCOc1ccc(CSCCNC(=S)Nc2ccccc2)cc1	0.5	i	0.96	105.2	-10.6	-18.4	83.6
Cc1ccc(-c2[nH]nc(N)c2N=Nc2cccc(Cl)c2C)cc1	0.5	i	0.85	101.1	-0.4	nt	nt
CCC(/C=N/NC(=O)CCCCC(=O)N/N=C/C(CC)CC)CC	-0.1	i	1.1	105.8	-1.4	-7.9	132.2
C/C=C\C=C\C(=O)N1CC2(CC(c3cccc(NC(=O)CC(c4ccccc4)c4ccccc4)c3)=NO2)C[C@H]1C(N)=O (some centres undefined)	nt	i	0.86	99.0	nt	nt	nt
Cc1ccc(S(=O)(=O)NCC(=O)NCC(=O)OCc2c(F)cccc2Cl)cc1	nt	i	1.43	104.2	3.4	nt	nt
O=C(Nc1ccc2c(c1)OCCO2)c1cc(-c2ccccn2)nc2ccc(Br)cc12	nt	i	0.84	98.0	5.0	nt	nt
Cc1sc2ncnc(Nc3ccc(O)cc3)c2c1C	nt	i	0.96	99.9	nt	nt	nt
COCCCNC(=O)c1cc(C(=O)Cc2ccccc2)c[nH]1	nt	i	1.05	99.1	-2.9	-40.0	82.8
CCCCCn1c(SCc2ccncc2)nc2cc(C(=O)NCc3ccco3)ccc2c1=O	1.0	i	0.88	98.6	11.7	6.2	136.6
CC1=C(C(=O)OCc2ccccc2)C(c2ccc([N+](=O)[O-])cc2)NC(=O)N1CCCCCC(=O)O (centres undefined)	-1.0	i	0.95	106.5	7.2	20.0	125.0
CN(C/C(O)=C(\C#N)c1ccccc1)C1CCCCC1	-1.6	i	0.97	95.7	2.5	-16.7	32.1
O=C(/C=C/c1ccc([N+](=O)[O-])cc1)c1cccnc1	-1.2	i	1.03	90.8	0.6	nt	nt
O=C1NC(=O)C2(COC(c3ccccc3Cl)OC2)S1 (centres undefined)	-0.6	i	1	103.7	12.3	0.0	118.1
COc1ccc2cc3cc(C(=O)NCc4ccco4)oc3nc2c1	-2.4	i	1.11	100.4	-5.5	0.0	96.1
CN1CCN(C(=O)C2=C[C@@H](C3CCCCC3)C[C@@H](OCCCCO)O2)CC1	nt	i	1.01	103.4	14.4	nt	nt
C/C(N)=C(/C#N)C(=O)CSc1nc2ccccc2c(=O)n1-c1ccc(C)cc1	-0.2	i	0.94	86.3	-1.2	-20.0	106.8
O=C(NCc1n[nH]c(=S)n1-c1ccccc1)c1ccco1	0.5	i	0.95	96.5	-4.9	0.0	106.6
Cc1cc(=O)oc(C)c1C(=O)Nc1cnc2ccccc2c1	-0.4	i	1.11	66.2	-2.2	-31.2	116.1
Cc1ncsc1C(=O)N1N=C2/C(=C/c3ccccc3)CCCC2C1c1ccccc1 (centres undefined)	-0.4	nt	nt	104.6	1.8	nt	nt
C=CCOc1ccc(C(=O)NC2CCCCC2)cc1	-0.9	i	0.99	107.7	-4.5	-48.1	77.5
COc1ccc(-c2c(C)sc(NC(=O)c3ccnn3C)c2C#N)cc1	-0.6	i	1.06	99.9	-8.2	26.7	190.7
Cc1cc(C)n2nc(SC(C)C(=O)NCc3ccco3)nc2n1 (centres undefined)	-1.4	i	0.98	103.7	7.1	48.5	90.7
CCOc1ccccc1CN1CCN(Cc2csc(C(C)=O)c2)CC1CCO (centres undefined)	nt	i	1	106.1	2.0	nt	nt
COc1ccc(F)cc1C(=O)C1CCCN(Cc2ccc3c(c2)OCCO3)C1 (centres undefined)	nt	i	0.91	105.6	-1.9	nt	nt
CCOC(=O)Cn1c2ccccc2c2nc(C)sc21	nt	i	0.96	102.5	-2.1	nt	nt
CC(=O)Nc1cccc(OCc2cnc(Cl)s2)c1	nt	i	1.03	104.1	-0.4	nt	nt
COCCn1c(=S)[nH]c2ccc(N(C)C)cc2c1=O	-2.5	i	0.62	96.3	-1.3	nt	nt
COC(=O)c1sc(-c2ccccc2)cc1NC(=O)c1ccc(F)cc1	-0.4	i	1.14	100.0	-5.2	nt	nt
CCOC(=O)c1c(C)c(C(=O)NC2CCCCC2)c(C)n1CC	-0.7	nt	nt	94.0	-5.9	nt	nt
C=CCOc1cccc(CNn2nnnc2N)c1	nt	i	1.03	62.8	-4.8	nt	nt
CNC(=S)N(CCc1ccc(OC)c(OC)c1)C1CC(=O)N(c2ccccc2)C1=O (centres undefined)	nt	i	1.03	100.8	nt	nt	nt
COc1ccc(C)cc1NC(=O)C(C)N(c1ccc(C)cc1)S(C)(=O)=O (centres undefined)	-2.1	i	0.94	101.0	-3.3	2.9	184.4
O=C(NNc1ccc(C2CCCCC2)cc1)C(O)(c1ccccc1)c1cccs1 (centres undefined)	12.8*	i	1.13	100.0	9.0	-6.5	120.4
CC(=O)Nc1cc(-c2ccccc2)ccc1O	-0.5	i	0.68	100.1	-2.0	nt	nt
O=C(CN1CCN(S(=O)(=O)/C=C/c2ccccc2)CC1)NC(=O)NCc1ccco1	-0.8	i	0.87	89.8	-3.4	nt	nt

The final 2 entries of the part before open the next one:
Molecule	GALR2 agonist	HSV replic up	HSV replic up primary fold	RGS16-Gao HTS	PKD1 kinase inh	Insulin prom inh	Insulin prom inh cell count
CC(=O)Nc1cc(-c2ccccc2)ccc1O	-0.5	i	0.68	100.1	-2.0	nt	nt
O=C(CN1CCN(S(=O)(=O)/C=C/c2ccccc2)CC1)NC(=O)NCc1ccco1	-0.8	i	0.87	89.8	-3.4	nt	nt
C=CCn1c(SCC(=O)c2ccccc2)nnc1-c1ccc2c(c1)OCO2	0.2	nt	nt	99.9	-4.5	21.4	108.7
O=C1CCCc2c1cc(C(=O)NC1CCSC1=O)c(=O)n2-c1ccccc1 (centres undefined)	-5.2	i	0.95	99.0	-1.0	-17.1	126.7
CC(=O)c1sc(N/N=C/c2ccc(C(C)C)cc2)nc1C	nt	i	1.08	106.4	-1.1	11.1	121.1
COc1cc2nc(CN(C)Cc3ccc(OC)c(OC)c3OC)[nH]c(=O)c2cc1OC	nt	i	0.92	111.1	-2.7	nt	nt
CCC1CCCCN1S(=O)(=O)Cc1ccccc1Cl (centres undefined)	nt	i	1.05	97.3	14.2	20.9	105.2
Nc1ccc(Br)cc1-c1nc2ccccc2[nH]c1=O	nt	i	1.06	102.5	-0.6	nt	nt
O=C(O)c1cccc(S(=O)(=O)N2CCCC2)c1	-1.0	i	0.93	68.1	5.8	16.7	166.2
C[C@@H](C(=O)Nc1ccccc1N1CCOCC1)N1C(=O)C2CC=CCC2C1=O (some centres undefined)	-0.2	i	1.02	104.8	-1.1	14.3	91.3
Cc1ccc(/C=N/NC(=O)CNC(=O)COc2ccccc2)o1	-0.9	i	0.98	102.3	2.6	nt	nt
CC(=O)c1cc(NC(=O)c2ccc(Cl)cc2)c(=O)oc1/C=C/N(C)C	-1.3	i	0.98	99.5	-14.0	-6.1	125.4
Cc1cccc(N(C(=O)Cn2nnc3ccccc32)C(C(=O)NCc2ccco2)c2ccncc2)c1 (centres undefined)	-1.1	i	0.91	112.5	11.1	nt	nt
CC(=O)N(Cc1ccco1)c1nc(C(=O)Nc2ccc(Cl)cc2)c(C)s1	-1.4	i	0.93	99.4	2.9	-78.6	139.1
CC(=C/C(=O)O)/C=C/c1cccs1	-2.7	i	0.9	107.2	-8.0	nt	nt
Fc1cccc(/C=N/Nc2nc3ccccc3[nH]2)c1	nt	i	0.83	100.8	-7.6	nt	nt
CC1=CC2=NC(=O)CC(C)(C(=O)N(CC(=O)NC3CCCC3)c3ccccc3C)N2C=C1 (centres undefined)	nt	i	0.86	100.7	nt	nt	nt
CC(=O)Nc1ccc(S(=O)(=O)Nc2nc3cc4c(cc3nc2Cl)OCCO4)cc1	nt	i	0.81	103.6	nt	nt	nt
CCn1c(COc2ccccc2C)nnc1SCC(=O)Nc1cc(C)on1	-2.7	i	0.92	110.3	0.4	-39.4	84.7
O=C(Cn1ccc(C(F)(F)F)n1)N=Nc1c(O)[nH]c2ccc(Br)cc12	nt	i	1.02	103.8	-5.8	nt	nt
COc1cccc(/C=N/NC(=O)NC2CCCCC2)c1O	nt	i	0.86	110.2	nt	nt	nt
COc1ccc(N(CC(=O)N2CCc3ccccc32)S(=O)(=O)c2c(C)noc2C)cc1	-1.2	i	0.93	77.9	-12.5	-10.0	163.3
Cn1nc(C(=O)N2CCCC2)c2ccccc2c1=O	0.2	i	0.78	104.8	-7.1	14.3	63.4
O=C(CSc1nnc(NC(=O)c2ccco2)s1)Nc1ccccc1F	nt	i	1.01	97.3	-13.5	nt	nt
CC(C)c1ccc(/C=C/C(=O)NCc2ccc(S(N)(=O)=O)cc2)cc1	nt	i	0.93	105.3	1.0	nt	nt
CC(C)(C)C(=O)Nc1cccc(-c2nnc(-c3cccc(NC(=O)C(C)(C)C)c3)o2)c1	-1.9	i	0.7	52.4	-4.0	62.5	111.4
COc1cccc2cc(C(=O)NCC3CCCO3)c(=O)oc12 (centres undefined)	-0.4	nt	nt	78.6	-10.4	0.0	119.8
